From PubChem BioAssay
Mtb hypoxia rep: reduces hypoxia-regulated biosensor signal in M. tuberculosis | M. tuberculosis hypoxia-regulated fluorescent reporter, fluorescence | fluorescence inhibition, % (no concentration beside the values) | actives 0.1% (n = 300,000) | AID 1159583;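 active = 35 to 45% if threefold the growth effect, above 45% if 1.5-fold the growth effect; inactive = the rest, general growth blockers included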;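 note: wells of about 50 µL received 100 nL stock; 0% = vehicle wells and 100% = reference inhibitor wells; whole bacteria with a GFP reporter of the hypoxia response; strong numbers were not always called active; many hits fall short of the cut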
Autofluor counter: counter-screen for toxin protease inhibitors: compound fluorescence | compound autofluorescence counterscreen, microsphere flow cytometry; stronger effect = higher value | fluorescence intensity (test concentration not listed) | actives 3.1% (n = 360,000) | AID 624483;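 active = at least 3 SD above the mean of all compounds, about 16000 in these data; inconclusive = too few beads counted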;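 note: 100 nL of 1 mM stock went into each well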
PrP UTR inh: inhibition of PrP 5' UTR reporter expression; inhibition, % (concentration not given with the values); actives 0.35% (n = 340,000); cell-based PrP 5' UTR mRNA reporter, plate reader;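 active = every replicate at 50% or more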;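 note: 0 = median of the neutral control wells; tested in H4 reporter cells; numbers are from one replicate; inactives centre near -14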
RN4220 kill: S. aureus RN4220 growth inhibition. AID 1259311. inhibition, % (concentration not given with the values). actives 0.33% (n = 330,000). OD600, 16 h;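 active = z-score of -3 or lower and OD600 up to 0.18 on both plates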;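 note: plate controls were untreated cells for no effect and reference antibiotic for full effect; stock transfer was 100 nL into about 80 µL; one replicate is shown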
BJeLR lethal: kills HRASV12-expressing BJeLR cells; BJeLR (HRASV12) viability, CellTiter-Glo ATP luminescence, 48 h; reference of the scale not given here; inhibition, % (no concentration beside the values); actives 0.17% (n = 300,000);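 active = replicate mean above 50%; inconclusive = above 50% but judged a plate artefact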;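 note: 50 nL library stock added to about 25 µL; numbers are from one replicate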
ugtP null kill: compounds lethal to S. aureus RN4220 ugtP deletion mutant | OD600 growth, 16 h; some inactives read as strong as hits | growth inhibition, % (test concentration not listed) | actives 0.54% (n = 330,000);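 active = z-score under -3 and OD600 up to 0.15 on both plates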;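 note: plate controls were untreated wells for no effect and antibiotic for full effect; wells of about 80 µL received 100 nL stock; the first replicate is given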
Mtb hypoxia rep growth: recorded beside Mtb hypoxia rep, whose call it bears; growth inhibition, %; measured here: M. tuberculosis growth (absorbance);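 0% = vehicle and 100% = reference antibiotic; read after six days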
Starred values were filed as active, the others as inactive; u = inconclusive; x = no result given.

SMILES	Mtb hypoxia rep	Mtb hypoxia rep growth	Autofluor counter	PrP UTR inh	RN4220 kill	BJeLR lethal	ugtP null kill
O=C(Nc1ccc(N2CCOCC2)cc1)c1ccc2ncsc2c1	-4	-1	2762	-77	1.1	x	-12
COC(=O)COc1ccc(S(=O)(=O)NCc2ccc3c(c2)OCO3)cc1C	3	12	3736	-22	5.5	-14	10
O=C(NNS(=O)(=O)c1ccc([N+](=O)[O-])cc1)C(=O)Nc1cccc(C(=O)O)c1	x	x	4585	-11	x	2	x
COc1ccc(NC(=O)COC(=O)Cn2c(C)nc3ccccc32)cc1OC	x	x	2106	-14	5.5	1	10
O=C(NC(=S)N1CCN(c2ccc(C(F)(F)F)cc2[N+](=O)[O-])CC1)c1cccs1	11	4	10597	-10	21	-5	13
CNc1nc(-c2ccc(S(=O)(=O)N3CCCCC3)cc2)cs1	0	-4	4073	-11	1.6	x	-2
CCN(CC)S(=O)(=O)c1ccc(Cl)c(NC(C)=O)c1	12	2	3959	-16	4.5	1	-1
CCn1c(SCc2cccc(F)c2)nnc1-c1ccncc1	6	8	3711	-13	4.6	-2	10
O=C(CCC(=O)N1CCCCC1)Nc1nnc(C2CCCCC2)s1	14	10	6401	-1	0.8	-4	6
CCOC(=O)C1(Cc2ccccc2C)CCCN(C(=O)c2cc(CC)nn2C)C1 (stereo not drawn)	6	6	4465	-3	3.5	1	1
Cn1c2c(c(=O)n(C)c1=O)C1c3c(ccc4ccccc34)OCC1CO2 (stereo not drawn)	4	1	x	x	5.8	x	-10
Cc1ccc(S(=O)(=O)N=C(CN2CCCCC2)N2CCOCC2)cc1	15	6	x	x	3.1	x	-1
COC(=O)C1C(=O)/C(=C/N(C)C)C(=O)CC1(C)C (stereo not drawn)	7	-5	3619	-10	5.2	-4	12
CC(C(=O)Nc1ccccc1C(=O)N1CCCC1)n1nnc2ccccc21 (stereo not drawn)	-12	2	21214*	-24	-1.9	6	-7
CSc1ccc(C(=O)C2CCCN(C(=O)c3nn(C)c(=O)c4ccccc34)C2)cc1 (stereo not drawn)	4	8	3588	-3	5.1	-3	-3
Cc1ccc(N2C(=O)N(CC(=O)N(C)Cc3ccccc3)C(=O)C2C)cc1 (stereo not drawn)	8	9	10939	x	2.9	-1	2
COCCNC(=O)/C(C#N)=C1\N=C(NC(=O)c2cccs2)c2ccccc21	12	1	5539	-18	5.7	2	-2
COc1cccc(CNC(=O)C(C)n2ccc3cc(S(=O)(=O)N4CCCCCC4)ccc32)c1 (stereo not drawn)	10	-1	6530	-5	-2.1	0	-11
Cc1csc(NC(=O)CSc2nc(=O)n(CCN(C)C)c3c2CCCC3)n1	10	8	u	-24	2.4	4	-1
C=CCn1c(SCC(=O)CC(=O)OCC)nc2cc(C(=O)N3CCC(C(N)=O)CC3)ccc2c1=O	8	12	4182	-14	16	7	5
O=C(O)c1ccc(OCCN2CCCC2=O)cc1	7	6	19644*	-21	-1.3	-7	6
COc1cccc(Cn2c(Oc3ccccc3)nc3c2c(=O)n(C)c(=O)n3C)c1	x	x	4271	0	5.9	1	4
c1cc(CNCCN2CCNCC2)ccn1	5	-4	3046	8	1.5	x	4
COC(=O)CCc1n[nH]c(=O)[nH]c1=O	14	8	5882	-14	3.6	5	6
COc1cccc(C=Nn2c(=O)[nH]c3ccccc32)c1OC	4	-1	x	x	1.3	x	-17

In another format: results already given.
canonical_smiles,Mtb hypoxia rep,Mtb hypoxia rep growth,Autofluor counter,PrP UTR inh,RN4220 kill,BJeLR lethal,ugtP null kill
CCn1c(SCc2cccc(F)c2)nnc1-c1ccncc1,6,8,3711,-13,4.6,-2,10
O=C(CCC(=O)N1CCCCC1)Nc1nnc(C2CCCCC2)s1,14,10,6401,-1,0.8,-4,6
CCOC(=O)C1(Cc2ccccc2C)CCCN(C(=O)c2cc(CC)nn2C)C1 (stereo not drawn),6,6,4465,-3,3.5,1,1
Cn1c2c(c(=O)n(C)c1=O)C1c3c(ccc4ccccc34)OCC1CO2 (stereo not drawn),4,1,x,x,5.8,x,-10
Cc1ccc(S(=O)(=O)N=C(CN2CCCCC2)N2CCOCC2)cc1,15,6,x,x,3.1,x,-1
COC(=O)C1C(=O)/C(=C/N(C)C)C(=O)CC1(C)C (stereo not drawn),7,-5,3619,-10,5.2,-4,12
CC(C(=O)Nc1ccccc1C(=O)N1CCCC1)n1nnc2ccccc21 (stereo not drawn),-12,2,21214*,-24,-1.9,6,-7
CSc1ccc(C(=O)C2CCCN(C(=O)c3nn(C)c(=O)c4ccccc34)C2)cc1 (stereo not drawn),4,8,3588,-3,5.1,-3,-3
Cc1ccc(N2C(=O)N(CC(=O)N(C)Cc3ccccc3)C(=O)C2C)cc1 (stereo not drawn),8,9,10939,x,2.9,-1,2
COCCNC(=O)/C(C#N)=C1\N=C(NC(=O)c2cccs2)c2ccccc21,12,1,5539,-18,5.7,2,-2
COc1cccc(CNC(=O)C(C)n2ccc3cc(S(=O)(=O)N4CCCCCC4)ccc32)c1 (stereo not drawn),10,-1,6530,-5,-2.1,0,-11
Cc1csc(NC(=O)CSc2nc(=O)n(CCN(C)C)c3c2CCCC3)n1,10,8,u,-24,2.4,4,-1
C=CCn1c(SCC(=O)CC(=O)OCC)nc2cc(C(=O)N3CCC(C(N)=O)CC3)ccc2c1=O,8,12,4182,-14,16,7,5
O=C(O)c1ccc(OCCN2CCCC2=O)cc1,7,6,19644*,-21,-1.3,-7,6
COc1cccc(Cn2c(Oc3ccccc3)nc3c2c(=O)n(C)c(=O)n3C)c1,x,x,4271,0,5.9,1,4
c1cc(CNCCN2CCNCC2)ccn1,5,-4,3046,8,1.5,x,4
COC(=O)CCc1n[nH]c(=O)[nH]c1=O,14,8,5882,-14,3.6,5,6
COc1cccc(C=Nn2c(=O)[nH]c3ccccc32)c1OC,4,-1,x,x,1.3,x,-17

(cont.)
SMILES	Mtb hypoxia rep	Mtb hypoxia rep growth	Autofluor counter	PrP UTR inh	RN4220 kill	BJeLR lethal	ugtP null kill
O=C(/C=C/c1ccccc1O)c1ccco1	7	9	4258	-10	9.9	10	-8
CC1=C(C)CC(C(=O)NCCc2ccc(F)cc2)C(C(=O)O)C1 (stereo not drawn)	x	x	3292	-11	x	3	x
C=CCn1cc(C=NNc2nc3ccccc3[nH]2)c2ccccc21	1	3	x	x	2.0	x	-26
CCOc1ccc(/C=N/n2c(SC)nnc2-c2ccccc2)cc1OCC	x	x	4324	-13	x	-10	x
COc1ccc(C=Nn2c(N)c(S(=O)(=O)c3cccs3)c3nc4ccccc4nc32)cc1OC	2	9	x	x	-0.9	x	-22
CCOC(=O)NN1C(=O)c2ccccc2NC1c1cccs1 (stereo not drawn)	14	-1	3002	-10	0.2	2	-4
C=CCn1c(O)c(/C=N/N2CCOCC2)c(=O)[nH]c1=S	4	4	2078	-3	1.1	2	3
CCOc1ccc(CN2CCCN(C)CC2)cc1	12	15	4259	-25	6.1	0	9
Cc1csc(SC(C)C(=O)NCc2ccc3c(c2)OCO3)n1 (stereo not drawn)	1	10	4114	-25	7.3	2	2
O=C(CCl)Nc1cccc(S(=O)(=O)N2CCCCCC2)c1	23	23	2170	-34	6.4	40	5
Cc1cccc[n+]1CC(=O)c1ccc(NC(=O)c2ccccc2)cc1	5	6	3792	-11	2.4	-8	6
COc1ccc(C(=O)NCC2COc3ccccc3O2)cc1S(=O)(=O)N1CCOCC1 (stereo not drawn)	4	-3	2877	0	1.8	x	11
CCCc1c(C(=O)NN=Cc2ccco2)nnn1-c1nonc1N	6	2	x	x	2.3	x	5
CCc1ccccc1NC(=O)c1cc(-c2ccc(OC)cc2)on1	17	2	4455	-20	6.1	0	8
C/C(=N/NC(=O)c1cc(C2CC2)[nH]n1)c1cccs1	x	x	u	52	x	1	x
COc1cc(/C=N/NC(=O)C(Cc2c[nH]c3ccccc23)NC(=O)OCc2ccccc2)cc([N+](=O)[O-])c1O (stereo not drawn)	x	x	9242	-18	x	-1	x
COc1ccc(-c2cc(OC)c3ccccc3n2)cc1	18	6	10943	-15	11	12	7
CCOC(=O)C1(CCOc2ccccc2)CCN(Cc2cc(OC)c3c(c2)OCO3)CC1	7	14	4382	29	0.7	10	7
COc1ccc(C(=O)COc2cccc(NC(=O)c3ccco3)c2)cc1	16	13	4730	-11	11	-5	0
CCOC(=O)c1c(Nc2ccc(Cl)cc2)sc(C=C2C=Nc3ccccc32)c1O	-1	-2	x	x	3.7	x	-38
CCOC(=O)C1=NOC(C(=O)NN(C)c2ncc(C(F)(F)F)cc2Cl)C1 (stereo not drawn)	8	-4	4174	-16	3.7	-5	5
Cn1cc(C=NNC(=O)COc2ccccc2[N+](=O)[O-])c2ccccc21	1	-1	x	x	-0.7	x	0
CCN(CC)CC(=O)N1c2ccccc2Oc2c(c(=O)n(C)c(=O)n2C)C1c1cccc([N+](=O)[O-])c1 (stereo not drawn)	5	13	5939	-7	4.4	5	6
CSc1nc2nc3c(cc2c(=O)n1-c1cccc(C)c1)COC(C)(C)C3	20	8	6587	x	-0.3	-2	6
Cc1cc(C)c(C(=O)COC(=O)Cn2cnnn2)cc1C	3	8	14900	-7	11	1	5
(more compounds)
SMILES	Mtb hypoxia rep	Mtb hypoxia rep growth	Autofluor counter	PrP UTR inh	RN4220 kill	BJeLR lethal	ugtP null kill
CC(=O)Nc1cc(NC(C)=O)c2nc(N)sc2c1	x	x	2437	4	2.3	2	7
Cn1c(=O)c2[nH]c(COc3ccccc3)nc2n(C)c1=O	-6	-6	2940	0	8.1	x	1
CCCC(c1nnnn1CS(=O)(=O)c1ccc(C)cc1)N1CCN(C2CCCC2)CC1 (stereo not drawn)	8	0	3069	-21	3.0	4	9
CCOC(=O)[C@@H]1[C@H]2COc3ccc(Br)cc3[C@@H]2N2C(=O)N(c3cccc(Cl)c3)C(=O)[C@]12C	x	x	3140	-7	x	5	x
O=C(CNCC1CCCCC1)Nc1ccccc1N1CCCCC1	6	11	9449	-22	9.9	-3	-30
CC(C)C(OC(=O)/C=C/c1ccc2c(c1)OCO2)C(=O)NC(N)=O (stereo not drawn)	7	-4	4624	-12	2.9	2	8
CC1(OC(=O)CCc2ccccc2)C(=O)C=C2C=C(c3ccc(C#N)cc3)N(C3CC3)C=C2C1=O (stereo not drawn)	18	9	3335	-13	4.8	-8	0
CCN(CC)C(=O)c1ccccc1NC(=O)c1ccccc1SC	-1	2	2268	-3	4.3	-4	3
O=C(NCCOCC(F)(F)C(F)F)c1cc(F)c(F)cc1Cl	15	16	20634*	-35	2.5	-9	6
O=C(O)c1ccccc1/C=N/NC(=O)c1cc(-c2ccco2)nc2ccccc12	x	x	4194	-14	x	7	x
CCc1cccc(C)c1NC(=O)CSc1nc(-c2ccccc2F)nc2nc[nH]c12	10	4	2099	-37	10	-12	-5
C=CCOC(=O)C1=C(C)NC(SCC(=O)OCC)=C(C#N)C1c1ccc(O)c(OC)c1 (stereo not drawn)	0	3	2944	-10	-13	-3	8
O=C(Nc1cccc2nsnc12)c1ccc2c(c1)OCCO2	7	1	5667	-103	21	-2	7
O=C(CN1C(=O)c2ccccc2S1(=O)=O)c1ccc(Cl)cc1Cl	x	x	4261	79*	x	-8	x
CCOC(=O)/C=C/C(=O)OCC(=O)Nc1cccc(Br)c1	5	-1	3088	-23	8.2	-9	18
COc1ccc(C(O)P(=O)(O)CCc2ccccc2)cc1 (stereo not drawn)	19	-18	2541	-22	-18	1	-4
CC1CCC(=O)N(CCC(Sc2ccccc2)c2ccccc2)CC1 (stereo not drawn)	4	7	x	x	6.5	x	9
O=C(NN=C(c1ccccc1)c1ccccc1)C(CCl)C1CCCCC1 (stereo not drawn)	5	-2	3551	-3	7.3	x	8
COc1cc(NC(=S)NCc2ccc(S(N)(=O)=O)cc2)cc(OC)c1	10	-1	4873	-16	5.3	-5	3

Part of the list above in another layout:
canonical_smiles,Mtb hypoxia rep,Mtb hypoxia rep growth,Autofluor counter,PrP UTR inh,RN4220 kill,BJeLR lethal,ugtP null kill
O=C(Nc1cccc2nsnc12)c1ccc2c(c1)OCCO2,7,1,5667,-103,21,-2,7
O=C(CN1C(=O)c2ccccc2S1(=O)=O)c1ccc(Cl)cc1Cl,x,x,4261,79*,x,-8,x
CCOC(=O)/C=C/C(=O)OCC(=O)Nc1cccc(Br)c1,5,-1,3088,-23,8.2,-9,18
